ugtP null kill – kills S. aureus RN4220 lacking UgtP. growth inhibition, % (concentration not given with the values). hit rate 0.54% among 330,000. AID 1259309. S. aureus RN4220 ugtP deletion, OD600 growth, 16 h; some inactives read as strong as hits;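 active = z-score under -3 and OD600 up to 0.15 on both plates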;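 also: plate controls were untreated wells for no effect and antibiotic for full effect; wells of about 80 µL received 100 nL stock; the first replicate is given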
Sa RN4220 lethal – S. aureus RN4220 growth inhibition | OD600, 16 h | inhibition, % (test concentration not listed) | hit rate 0.33% among 330,000 | AID 1259311;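 active = z-score of -3 or lower and OD600 up to 0.18 on both plates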;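 also: plate controls were untreated cells for no effect and reference antibiotic for full effect; stock transfer was 100 nL into about 80 µL; one replicate is shown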
PrP UTR inh – inhibition of PrP 5' UTR reporter expression | cell-based PrP 5' UTR mRNA reporter, plate reader | inhibition, % (test concentration not listed) | hit rate 0.35% among 340,000 | AID 488862;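 active = every replicate at 50% or more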;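 also: 0 = median of the neutral control wells; tested in H4 reporter cells; numbers are from one replicate; inactives centre near -14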
Bead autofluor – counter-screen for toxin protease inhibitors: compound fluorescence; compound autofluorescence counterscreen, microsphere flow cytometry; stronger effect = higher value; fluorescence intensity (concentration not given with the values); hit rate 3.1% among 360,000; AID 624483;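 active = at least 3 SD above the mean of all compounds, about 16000 in these data; inconclusive = too few beads counted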;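 also: 100 nL of 1 mM stock went into each well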
Mtb hypoxia rep – Mtb hypoxia fluorescent reporter inhibition; AID 1159583; fluorescence inhibition, % (test concentration not listed); M. tuberculosis hypoxia-regulated fluorescent reporter, fluorescence; hit rate 0.1% among 300,000;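 active = 35 to 45% if threefold the growth effect, above 45% if 1.5-fold the growth effect; inactive = the rest, general growth blockers included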;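 also: wells of about 50 µL received 100 nL stock; 0% = vehicle wells and 100% = reference inhibitor wells; whole bacteria with a GFP reporter of the hypoxia response; strong numbers were not always called active; many hits fall short of the cut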
BJeLR viability – kills HRASV12-expressing BJeLR cells. BJeLR (HRASV12) viability, CellTiter-Glo ATP luminescence, 48 h; reference of the scale not given here. inhibition, % (test concentration not listed). hit rate 0.17% among 300,000. AID 1554;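 active = replicate mean above 50%; inconclusive = above 50% but judged a plate artefact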;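 also: 50 nL library stock added to about 25 µL; numbers are from one replicate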
Mtb hypoxia rep growth – second read-out of Mtb hypoxia rep, no call of its own (marks repeat the call); growth inhibition, %; measured here: M. tuberculosis growth (absorbance);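 0% = vehicle and 100% = reference antibiotic; read after six days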
* hit, by the source's call; u = inconclusive; x = not tested or not shown.

No.	smiles	BJeLR viability	ugtP null kill	Bead autofluor	PrP UTR inh	Mtb hypoxia rep growth	Sa RN4220 lethal	Mtb hypoxia rep
1	O=[N+]([O-])c1cc([N+](=O)[O-])c(Oc2cc(F)cc(F)c2F)cc1NN1CCCCC1	0	6	3660	-21	3	6.0	22
2	Cc1ccc(NC(=O)COC(=O)CC2CCCC2)cc1F	x	4	3996	-8	15	6.1	21
3	Cc1ccc2[nH]c3c(=O)n(Cc4ccccn4)cnc3c2c1	6	-10	u	-4	6	4.9	6
4	Cc1ccc(C(=O)NCC(=O)OCC(=O)N2CCCc3ccccc32)cc1	0	-5	2515	-3	4	1.5	4
5	Cc1cc2ccccc2c(=O)n1CC(=O)NCC(=O)N1CCN(c2ccccc2)CC1	-14	-4	23551*	-16	4	-1.7	-6
6	O=C(Nc1ccc(Oc2cccnc2)cc1)c1ccc([N+](=O)[O-])cc1	5	-18	2603	-1	5	-6.5	5
7	CCOC(=O)C1(Cc2ccccc2C)CCCN(C(=O)c2ccc3nccnc3c2)C1 (configuration not stated)	-2	6	u	-10	-1	9.6	-2
8	Cc1cc(NC(=O)CCCN2C(=O)/C(=C/c3ccccc3Cl)SC2=S)no1	-6	13	5946	-11	10	5.9	17
9	CCN(CC)S(=O)(=O)c1ccc(C)c(N=C=S)c1	-14	2	4730	-19	-10	1.0	9
10	Cc1cccc(N2N=C(C(=O)N3CC(=O)Nc4ccccc43)CCC2=O)c1	6	4	4311	-22	4	4.7	-8
11	O=C(CCc1ccccc1)Nc1ccccc1	-17	-1	2381	-38	-10	6.9	11
12	Cc1cc(Cn2nnnc2-c2ccncc2)cc(C)c1O	-6	1	2689	-11	-6	3.9	10
13	Nc1nc2ccccc2n1C(=O)c1ccc(F)cc1	3	8	2508	-14	2	0.6	6
14	CC1(C(=O)N/N=C/c2ccc([N+](=O)[O-])o2)CC1(Br)Br (configuration not stated)	15	x	9914	-42	x	x	x
15	COCCNC(=O)C(C)Oc1ccc(Cl)cc1Cl (configuration not stated)	-3	1	4210	-3	11	2.2	8

Looked up above.
ugtP null kill with compound 2 : 4
ugtP null kill with compound 12 : 1

More records
No.	smiles	BJeLR viability	ugtP null kill	Bead autofluor	PrP UTR inh	Mtb hypoxia rep growth	Sa RN4220 lethal	Mtb hypoxia rep
16	Cc1ccc(-n2c(N)c(C#N)c(-c3ccccc3)c(C#N)c2=O)cc1	2	-5	2613	-13	x	-0.8	x
17	CC(C)OCCCNC(=O)C(C)Oc1ccccc1 (configuration not stated)	5	2	16104	-24	8	1.3	7
18	O=C(COc1ncnc2ccc(Br)cc12)N1CCOCC1	19	1	4329	-15	x	1.3	x
19	CN(C)CC1CCCCC1OC(=O)c1ccc(S(=O)(=O)N(C)c2ccccc2)cc1 (configuration not stated)	-11	16	5749	-14	2	5.4	-5
20	COc1ccccc1NC(=O)CSc1nc2ccccc2n1C(C)=O	5	4	8376	-4	6	5.5	3
21	CN1CCN(C(=O)c2ccc(CSc3ccc(Cl)cc3)cc2)CC1	23	x	2750	8	x	x	x
22	CCN(CCCNC(=O)CCCOc1cc(=O)n(C)c2ccccc12)Cc1ccccc1	1	-1	2179	-22	3	3.9	2
23	O=C(c1ccc2nc(Cc3cccc(Cl)c3)oc2c1)N1CCC(CO)CC1	4	0	5959	-32	11	5.0	6
24	COc1ccc(CNC(C)C2COc3ccccc3O2)c(OC)c1 (configuration not stated)	4	-8	2561	-5	x	2.1	x
25	Clc1ccc(COc2ccccn2)c(Cl)c1	-2	12	8063	-3	0	3.8	7
26	O=C(NC(=S)Nc1cccc2cc(O)ccc12)c1ccco1	2	-10	5110	-17	-2	3.5	7
27	COc1ccc(-c2csc(NC(=O)CSc3nc(C)cs3)n2)cc1	0	12	u	-24	6	4.7	0
28	Cc1cc(C)n(CC(=O)N2CCCC(C(=O)c3cccc(OC(C)C)c3)C2)n1 (configuration not stated)	-8	0	2321	-14	7	1.2	9
29	CCCc1c(-c2ccc(O)cc2)nn(-c2ccc(O)cc2)c1-c1ccc(O)cc1	5	x	6429	-11	x	x	x
30	COc1ccc(N2CC(C(=O)N[C@@H](C)C(=O)NC3CCCCC3)CC2=O)cc1 (some centres not stated)	0	6	5316	-6	5	1.6	5

Profiles as entered above.
CCN(CCCNC(=O)CCCOc1cc(=O)n(C)c2ccccc12)Cc1ccccc1 is listed as BJeLR viability: 1; ugtP null kill: -1; Bead autofluor: 2179; PrP UTR inh: -22; Mtb hypoxia rep growth: 3; Sa RN4220 lethal: 3.9; Mtb hypoxia rep: 2
CN1CCN(C(=O)c2ccc(CSc3ccc(Cl)cc3)cc2)CC1 is listed as BJeLR viability: 23; ugtP null kill: x; Bead autofluor: 2750; PrP UTR inh: 8; Mtb hypoxia rep growth: x; Sa RN4220 lethal: x; Mtb hypoxia rep: x

The list continues.
No.	smiles	BJeLR viability	ugtP null kill	Bead autofluor	PrP UTR inh	Mtb hypoxia rep growth	Sa RN4220 lethal	Mtb hypoxia rep
31	O=C(CCCCCBr)N1CCC(CC2CC(c3ccc(Cl)cc3)=NO2)(C(=O)NCC2CCCCC2)CC1 (configuration not stated)	1	x	4264	-9	x	x	x
32	CCCNC(=O)C(Cc1ccccc1F)NC(=O)c1ccccn1 (configuration not stated)	x	-4	3120	-7	2	6.3	-3
33	CCOC(=O)Cc1cc(OC)c(OC)cc1Cc1cc(OC)c(OC)cc1CC(=O)OCC	-3	2	5261	16	0	1.8	0
34	CCOc1ccc(N2CC(C(=O)NCCN3C(=O)S/C(=C\c4cccnc4)C3=O)CC2=O)cc1 (configuration not stated)	6	5	3792	-19	2	5.0	7
35	COP(=O)(OC)C(C=O)=NNc1ccc([N+](=O)[O-])cc1	x	8	x	x	9	2.5	13
36	O=C(O)c1cc2ccccc2c2cc(Br)ccc12	3	x	4137	-17	x	x	x
37	CN(c1ccccc1)S(=O)(=O)c1ccc2[nH]c(=O)[nH]c2c1	-5	5	3942	-3	7	9.4	-4
38	Cn1c(-c2cccc3ccccc23)n[nH]c1=S	12	-6	10435	-29	4	6.0	11
39	CCC(C)NC(=O)c1ccc(CSc2nc3ccncc3n2Cc2ccc(F)cc2)cc1 (configuration not stated)	3	4	5286	-16	16	-3.8	7
40	Cc1cc(NS(=O)(=O)c2ccc(C(C)C)cc2)no1	5	5	5739	-12	-8	6.9	-7
41	Cc1cc(NC(=O)CN2CCN(S(=O)(=O)c3ccc(Cl)cc3)CC2)no1	-2	1	19724*	-7	-3	2.3	3
42	Cc1ccc(NC(=O)C(C)N2C(=O)c3ccccc3C2=O)cc1S(=O)(=O)N1CCOCC1 (configuration not stated)	x	2	3100	-5	-2	3.7	14
43	Cc1cc(NC(=O)c2ccco2)ccc1NC(=O)Cc1cccs1	-1	4	2559	-14	14	-15	9
44	COc1ccc(C(=O)NCC(=O)NCC(=O)OCc2ccc(Cl)cc2)cc1	3	9	3067	-11	-11	3.4	9
45	CCOc1ccccc1NC(=O)Nc1ccc(Br)cn1	-1	5	2531	-17	3	9.3	-2

In a second layout: results already given
Every second line gives: BJeLR viability, ugtP null kill, Bead autofluor, PrP UTR inh, Mtb hypoxia rep growth, Sa RN4220 lethal, Mtb hypoxia rep
32. CCCNC(=O)C(Cc1ccccc1F)NC(=O)c1ccccn1 (configuration not stated)
→ x, -4, 3120, -7, 2, 6.3, -3
33. CCOC(=O)Cc1cc(OC)c(OC)cc1Cc1cc(OC)c(OC)cc1CC(=O)OCC
→ -3, 2, 5261, 16, 0, 1.8, 0
34. CCOc1ccc(N2CC(C(=O)NCCN3C(=O)S/C(=C\c4cccnc4)C3=O)CC2=O)cc1 (configuration not stated)
→ 6, 5, 3792, -19, 2, 5.0, 7
35. COP(=O)(OC)C(C=O)=NNc1ccc([N+](=O)[O-])cc1
→ x, 8, x, x, 9, 2.5, 13
36. O=C(O)c1cc2ccccc2c2cc(Br)ccc12
→ 3, x, 4137, -17, x, x, x
37. CN(c1ccccc1)S(=O)(=O)c1ccc2[nH]c(=O)[nH]c2c1
→ -5, 5, 3942, -3, 7, 9.4, -4
38. Cn1c(-c2cccc3ccccc23)n[nH]c1=S
→ 12, -6, 10435, -29, 4, 6.0, 11
39. CCC(C)NC(=O)c1ccc(CSc2nc3ccncc3n2Cc2ccc(F)cc2)cc1 (configuration not stated)
→ 3, 4, 5286, -16, 16, -3.8, 7
40. Cc1cc(NS(=O)(=O)c2ccc(C(C)C)cc2)no1
→ 5, 5, 5739, -12, -8, 6.9, -7
41. Cc1cc(NC(=O)CN2CCN(S(=O)(=O)c3ccc(Cl)cc3)CC2)no1
→ -2, 1, 19724*, -7, -3, 2.3, 3
42. Cc1ccc(NC(=O)C(C)N2C(=O)c3ccccc3C2=O)cc1S(=O)(=O)N1CCOCC1 (configuration not stated)
→ x, 2, 3100, -5, -2, 3.7, 14
43. Cc1cc(NC(=O)c2ccco2)ccc1NC(=O)Cc1cccs1
→ -1, 4, 2559, -14, 14, -15, 9
44. COc1ccc(C(=O)NCC(=O)NCC(=O)OCc2ccc(Cl)cc2)cc1
→ 3, 9, 3067, -11, -11, 3.4, 9

Next section.
No.	smiles	BJeLR viability	ugtP null kill	Bead autofluor	PrP UTR inh	Mtb hypoxia rep growth	Sa RN4220 lethal	Mtb hypoxia rep
46	C/C(=N\NC(=O)Cc1ccc([N+](=O)[O-])cc1)c1cccnc1	4	x	6481	-12	x	x	x
47	COc1ccccc1N(CC(=O)N1CCN(c2ccc(F)cc2)CC1)S(=O)(=O)c1ccc(C)cc1	0	6	5669	-8	9	0.8	5
48	CN1C(=O)N(C)C2C1NC(=O)N2C (configuration not stated)	-14	6	2327	-13	0	7.1	5
49	CCSc1nnc(NC(=O)c2cc(-c3ccc(C)c(C)c3O)n[nH]2)s1	-3	-6	2514	-10	2	-2.6	-11
50	CC(C)(C)N(Cc1ccccc1)C(=O)COC(=O)CCN1C(=O)C2CC=CCC2C1=O (configuration not stated)	x	7	5320	-21	-1	0.8	7
51	CC(C)NC(=S)N1CCn2c(nc3ccccc32)C1	-6	x	9339	-18	x	x	x
52	O=C(OCCCN=C1NS(=O)(=O)c2ccccc21)c1cccs1	7	12	2327	-16	6	3.7	6
53	CC(C)C(=O)Nc1ccc(N2CCN(S(C)(=O)=O)CC2)cc1	-6	4	4790	-12	x	2.7	x
54	Cc1nnc(SC2CC(=O)N(c3ccccc3)C2=O)s1 (configuration not stated)	-3	-3	4760	-16	x	7.3	x
55	Cc1cc(NC(=O)Cn2c(=O)n(Cc3ccccc3)c(=O)c3ccccc32)no1	-5	8	10323	-1	0	4.9	4
56	CN(C)CCP(=O)(c1ccccc1)c1ccccc1	-3	2	4913	6	6	4.9	6
57	COc1ccc(-c2noc(=O)n2CC(=O)N2CCC(Cc3ccccc3)CC2)cc1	-4	4	3870	-9	-7	3.7	-5
58	O=C(CCCCCN1C(=O)CCC1=O)Nc1ccc2c(c1)OCCO2	2	-1	2741	-11	x	-2.2	x
59	Cc1cc(C)cc(-n2c(C)cc(/C=C3\C(=N)N4N=C(CC(C)C)SC4=NC3=O)c2C)c1	-11	-22	2145	-4	2	-12	2
60	COc1ccc(/C=N/NC(=O)NC23CC4CC(CC(C4)C2)C3)c(OC)c1	-3	x	3238	-3	x	x	x

Other compounds follow:
No.	smiles	BJeLR viability	ugtP null kill	Bead autofluor	PrP UTR inh	Mtb hypoxia rep growth	Sa RN4220 lethal	Mtb hypoxia rep
61	COc1ccc(Br)cc1CNC(=O)CCc1nc(-c2ccccc2F)no1	-6	13	4322	-20	x	2.3	x
62	COCc1cc(=O)n2[nH]c(-c3ccsc3-n3c(C)ccc3C)cc2n1	6	0	3577	-20	0	11	5
63	CCCn1cc(S(=O)(=O)c2ccccc2)c(=O)c2cc(OC)c(OC)cc21	-11	2	4413	-19	8	3.3	0
64	COC(=O)c1ccccc1NS(=O)(=O)c1ccc(F)cc1	3	-4	20259*	-21	3	4.1	6
65	COC(=O)C1=C(c2ccc(F)cc2OCc2ccccc2)C[C@@H]2CC[C@H]1N2C(=O)NCCO	x	-6	4351	3	8	-9.1	-2
66	COc1ccc(N2C(=O)CS(=O)C(c3ccccc3)C2=O)cc1 (configuration not stated)	3	-4	2602	-55	-3	4.1	-3
67	COc1ccc(-c2nnc3sc(-c4cccs4)nn23)cc1OC	-10	-7	3341	-24	0	6.4	-4
68	O=C(NC1CCCCC1)C(c1ccc2ncccc2c1)N(Cc1ccc2c(c1)OCO2)C(=O)c1cccs1 (configuration not stated)	3	12	8501	-17	-3	-5.5	-3
69	CCCN(CCC)CCCNC(=S)Nc1ccc2nc(N3CCCC3)cc(C)c2c1	3	0	2799	-13	12	-0.9	14
70	Cc1cc(NC(=O)CCS(=O)(=O)c2ccc(F)cc2)no1	4	8	6046	5	2	0.8	5

Bioassay records: PubChem, several laboratories
